# From PubChem BioAssay
# PABP FP inh – blocks human PABP binding to poly(A) RNA | fluorescence polarization | 1% of 290,000 active | inhibition, % at 35 µM;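 active = 50% or more with normal probe brightness, or confirmed in later tests; about a fifth of its hits are not listed in these tables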;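 note: calls also rest on retests at 20 µM and on dose response follow-up; controls were probe without protein and protein plus probe with vehicle; some compounds called inactive have numbers as strong as hits; many hits fall short of the cut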
# Target sequence (P11940 whole entry, looked up): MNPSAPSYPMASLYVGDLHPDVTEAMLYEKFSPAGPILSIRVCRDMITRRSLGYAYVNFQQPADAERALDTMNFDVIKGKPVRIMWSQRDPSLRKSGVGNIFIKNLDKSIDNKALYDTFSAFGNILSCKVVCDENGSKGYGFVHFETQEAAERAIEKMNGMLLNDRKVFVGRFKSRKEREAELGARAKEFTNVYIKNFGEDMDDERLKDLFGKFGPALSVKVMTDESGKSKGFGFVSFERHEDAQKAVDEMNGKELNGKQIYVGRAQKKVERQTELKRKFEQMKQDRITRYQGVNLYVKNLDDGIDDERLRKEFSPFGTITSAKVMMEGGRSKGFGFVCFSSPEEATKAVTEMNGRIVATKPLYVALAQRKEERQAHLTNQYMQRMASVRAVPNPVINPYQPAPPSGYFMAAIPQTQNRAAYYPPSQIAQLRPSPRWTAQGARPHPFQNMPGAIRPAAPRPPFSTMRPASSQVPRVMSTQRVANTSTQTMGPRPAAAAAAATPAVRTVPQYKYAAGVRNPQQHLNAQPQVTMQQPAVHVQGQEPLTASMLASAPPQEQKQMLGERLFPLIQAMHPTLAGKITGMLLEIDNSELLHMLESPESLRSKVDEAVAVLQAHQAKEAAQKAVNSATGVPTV
# eIF4H inh – inhibitors of RNA binding by human eIF4H; Q15056; eIF4H fluorescence polarization binding assay; inhibition, % at 35 µM; 0.94% of 290,000 active; AID 2012;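 active = 50% or more with normal probe brightness, or confirmed in later tests; about a fifth of its hits are not listed in these tables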;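 note: calls also rest on retests at 20 µM and on dose response follow-up; 0% = protein and probe with vehicle and 100% = probe without protein; strong numbers were not always called active; many hits fall short of the cut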
# Env fusion inh – blocks HIV Env-driven cell-cell fusion; 1.1% of 360,000 active; AID 651610; HeLa-JRFL Env/CEM21 cell fusion, luciferase; inhibition, % at 12.3 µM;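 active = mean replicate inhibition score of at least 50 and every replicate individually at or above 50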;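 note: 0% = plate neutral controls and 100% = maraviroc near 300 nM; one replicate is shown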
# MT1-MMP act inh – blocks activation of human MT1-MMP | P50281 | HT1080 RFP-PRO-GFP cells, GFP/RFP ratio fluorescence, overnight; percent of plate control window, DMSO zero | GFP/RFP ratio change, % at 20 µM | 0.061% of 360,000 active | AID 651647;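 active = GFP/RFP ratio change of at least 30% with cell ATP level not reduced by more than half and red fluorescence within 50% of control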; note: strong numbers were not always called active
#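 system = RFP-PRO-GFP reporter HT1080 cells | dosing = 20 µM single dose, 1% DMSO | timing = overnight cell settling, then overnight compound exposure, 37 °C, 5% CO2 | read-out basis = GFP/RFP fluorescence ratio | controls = DMSO and RFP-L50D-GFP cell wells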
# Yeast UUG start – yeast start codon fidelity modulation. S. cerevisiae UUG-firefly luciferase reporter, luminescence/redox ratio. activity score, % at 18.7 µM. 0.13% of 350,000 active;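 active = replicate mean at a twofold rise or more, about +100% in these data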;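 note: firefly luciferase made from a UUG start codon reports start codon fidelity; reporter light over untreated wells divided by growth signal over untreated wells; some hits fall short of that in this replicate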
# CSC inhib – blocks cancer stem cells; cancer stem cell-like cells viability, luminescence; inhibition, % at 7.5 µM; 1.1% of 300,000 active; AID 2717;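 active = mean at 75% or more and at least half the replicates too; tested in HMLE shEcad cells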;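 note: 0% = median of negative and 100% = median of positive control wells; the first replicate is given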
# Rce1 inh – yeast Ras-converting enzyme inhibition | Q03530 | yeast membranes, quenched prenylated peptide cleavage fluorescence | calls only | 0.27% of 290,000 active | AID 2563;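 active = fall in fluorescence gain of 50% or more versus controls, with final raw signal at or below 3038400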;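 note: plate controls were neutral control wells for no effect and wells lacking membranes for full effect; tested at 10 µM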
# eIF4H inh retest – further read-out of eIF4H inh, marked with its call; inhibition, %; compound at 20 µM; confirmation average;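 mean of two retest wells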
# PABP FP inh retest – recorded beside PABP FP inh, whose call it bears; inhibition, %; compound at 20 µM; confirmation repeats;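 mean of two retest wells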
# MT1-MMP act inh RFP – further read-out of MT1-MMP act inh, marked with its call; RFP signal change, %; measured here: RFP expression control read;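 0 = vehicle wells; hits needed this value within 50% of zero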
# * = called active by the depositor; i = inactive; . = no result given; & = joins results of further samples.
# Start of the listing, in advance, 2 compounds:
SMILES,PABP FP inh,eIF4H inh,Env fusion inh,MT1-MMP act inh,MT1-MMP act inh RFP,Yeast UUG start,CSC inhib,Rce1 inh,others
c1ccc2c(Nc3ccc(N4CCOCC4)cc3)nc(N3CCOCC3)nc2c1,-6,2,16,3,-4,-4,-7,.,
CCOC(=O)CC1=CSC2=NS(=O)(=O)CCN12,4,-1,.,-2,0,-20,-12,i,

# Main list, previewed entries included:
SMILES,PABP FP inh,eIF4H inh,Env fusion inh,MT1-MMP act inh,MT1-MMP act inh RFP,Yeast UUG start,CSC inhib,Rce1 inh,others
c1ccc2c(Nc3ccc(N4CCOCC4)cc3)nc(N3CCOCC3)nc2c1,-6,2,16,3,-4,-4,-7,.,
CCOC(=O)CC1=CSC2=NS(=O)(=O)CCN12,4,-1,.,-2,0,-20,-12,i,
CCN1CCN(C(c2ccccn2)c2c(NC(=O)c3ccccc3)sc(C)c2C)CC1 (stereo unspecified),-2,6,6,3,5,-32,-7,i,
O=S(=O)(Cc1ccccc1)/C1=C(\N2CCOCC2)CCCCCC1,-6,-2,-4,-9,-2,.,-4,i,
O=C(CNC(=O)c1ccco1)OCC(=O)c1ccc2c(c1)CCCC2,5,8,-233,1,0,-11,-25,i,
CCOC(=O)c1ccc(NC(=O)c2ncn3c2C(=O)NC[C@H]3C)cc1,.,.,-4,3,-5,-18,.,.,
Cc1ccc(CNC(=O)c2cccnc2)cc1,.,.,26,2,2,-19,2,i,
Cc1cc(C)c2nc(NC(=O)c3cc(C)on3)sc2c1,-3,0,.,5,5,-4,.,i,
Cc1c(NC(=S)NC(=O)c2ccc(Cl)cc2)c(=O)n(-c2ccccc2)n1C,.,.,-15,0,-4,-1,4,i,
COc1cccc(N2C(=O)CC(Sc3nc(C)cc(C)n3)C2=O)c1 (stereo unspecified),-7,-1,5,2,0,2,-1,i,
COc1ccc(CCNC(=O)c2cccnc2Cl)cc1OC,.,.,3,3,-4,.,-18,i,
CC(=O)c1cccc(NC(=O)N2CCCCCC2)c1,-3,0,.,-6,-2,3,-3,i,
COc1ccc(NC(=O)CCN2CCN(c3ccccc3F)CC2)c(OC)c1,8,-11,5,5,2,-1,-23,i,
O=C(Nc1cc(N2CCOCC2)ncn1)c1ccc(F)cc1,-12,-16,5,2,0,.,-6,i,
CC(C)[C@H](NC(=O)OC(C)(C)C)C(=O)N1CCC(C(=O)N[C@@H](C)C(=O)Nc2ccc(F)cc2)CC1,-2,-2,-30,3,1,-2,-14,i,
CCCOc1ccc(/C=N/NC(=O)c2ccc3c(c2)OCO3)c(OCCC)c1,4,-5,3,0,1,-16,29,i,
CCOc1c(/C=C(\C#N)C(N)=O)c2ccccc2n1CC,-14,2,18,-12,-9,.,32,i,
Cn1cccc1CC(=O)NNC(=O)Nc1ccc(F)cc1,-3,4,2,-1,3,.,-4,i,
Nc1ccc(-n2nncc2-c2ccc(Cl)cc2)cc1,-9,-8,-1,-8,-4,-13,.,i,
O=C(CNC(=O)c1ccc(Br)o1)NCCc1ccc(F)cc1,0,0,-12,-2,0,-4,-1,i,
CCCCN1C(=O)C(CC(=O)NCCCCc2ccccc2)CC(C(=O)N(C(C)C)C(C)C)=C1C (stereo unspecified),.,.,-16,-2,-4,11,.,.,
COc1ccc(S(=O)(=O)N2CCC(C(=O)Nc3c(F)cccc3F)CC2)cc1,-12,-15,-21,-2,-2,-4,-8,i,
CC1(C(=O)N2Cc3ccccc3C2)CCN1C(=O)C1(c2ccccc2)CC1 (stereo unspecified),.,.,2,2,-1,-8,.,.,
Cc1cccc(C(=O)N2CCN(C(=O)c3cccc(C)c3)C(C)C2)c1 (stereo unspecified),6,-12,.,-2,1,3,8,.,
CCC(C)(C)n1nnnc1C(c1ccccc1)N1CCN(Cc2ccccc2)CC1 (stereo unspecified),1,-4,-1,-6,1,.,-7,i,
CCC(=O)N(c1nnc(SCC(=O)Nc2ccc(N3CCOCC3)cc2)s1)C1CC1,.,.,6,9,-1,12,-14,.,
COc1ccccc1C(=O)N(Cc1ccco1)C1CCS(=O)(=O)C1 (stereo unspecified),-2,0,.,0,5,-5,6,i,
Cc1cc(=O)[nH]c(SCc2cc(=O)n3nc(C)sc3n2)n1,2,-6,-9,4,4,-22,11,i,
CCC(C(=O)Nc1nccs1)c1ccccc1 (stereo unspecified),-8,-8,21,-4,-2,-23,-11,i,
Cc1nc(-c2ccccc2)sc1C(=O)/C=C/c1ccccc1,-2,-11,.,-1,-8,-34,-7,i,
Cc1ccc(Cn2c(=N)c(C#N)cc3c(=O)n4cccc(C)c4nc32)cc1,5,-2,.,.,.,.,6,i,
COc1ccccc1N1C(N)=NC(N)=NC1(C)C,-11,-5,-3,-9&3,4&1,5&-14,.,i,
COc1cccc(CCNC(=O)CC2C(=O)NCCN2Cc2ccc(Cl)c(F)c2)c1 (stereo unspecified),-10,11,30,-4,-3,-4,-15,i,
Cc1cc(Br)ccc1OCc1nnc(-c2ccccc2)o1,.,.,-51,3,6,-12,.,.,
COc1cccc(C(=O)/C=C/Nc2cccc(O)c2)c1,120,128,.,-24,4,-71,4,i,eIF4H inh retest=-1;PABP FP inh retest=5
COc1ccc(NC(=S)N2CCC(NC(=O)C3CCCCC3)CC2)cc1,2,-1,0,3,-1,-13,-13,i,
Cc1cc(NC(=O)CCN2C(=O)C3C4C=CC(C4)C3C2=O)ccc1Br (stereo unspecified),11,-7,-2,5,3,-3,-15,i,
OCCSc1nnc(Nc2ccccc2)s1,-2,-4,.,-1,2,.,-11,i,
CSCC[C@H](NC(=O)OC(C)(C)C)C(=O)N1CCC(C(=O)N[C@H](C(=O)O)C(C)C)CC1,-1,-2,.,6,2,-17,-5,i,
Cn1c2ccccc2c2cc(C(=O)N3CCOCC3)sc21,2,-2,-23,-1,2,-10,0,i,
CCCCc1nnc(NC(=O)CSc2nc(=O)cc(N)n2-c2ccccc2)s1,2,3,-17,-1,4,-4,-13,i,
O=C(CSc1nncn1-c1ccccc1)Nc1c(F)cccc1F,12,2,-8,5,7,4,-5,i,
COc1ccccc1CNC(=O)/C=C/c1cc2c(cc1Br)OCO2,8,-4,.,-4,-4,0,12,i,
Cc1ccc(N2CCN(/N=C/c3ccccc3)CC2)cc1,2,-8,-20,4,-4,-2,19,i,
O=C(NCCO)c1ccc2c(c1)S(=O)(=O)c1ccccc1C2=O,-2,-3,-28,2,5,-21,5,i,

# Reprinted at random: 7 compounds from above.
SMILES,PABP FP inh,eIF4H inh,Env fusion inh,MT1-MMP act inh,MT1-MMP act inh RFP,Yeast UUG start,CSC inhib,Rce1 inh,others
COc1cccc(CCNC(=O)CC2C(=O)NCCN2Cc2ccc(Cl)c(F)c2)c1 (stereo unspecified),-10,11,30,-4,-3,-4,-15,i,
OCCSc1nnc(Nc2ccccc2)s1,-2,-4,.,-1,2,.,-11,i,
Cc1cc(Br)ccc1OCc1nnc(-c2ccccc2)o1,.,.,-51,3,6,-12,.,.,
O=C(NCCO)c1ccc2c(c1)S(=O)(=O)c1ccccc1C2=O,-2,-3,-28,2,5,-21,5,i,
Cc1cc(NC(=O)CCN2C(=O)C3C4C=CC(C4)C3C2=O)ccc1Br (stereo unspecified),11,-7,-2,5,3,-3,-15,i,
COc1cccc(C(=O)/C=C/Nc2cccc(O)c2)c1,120,128,.,-24,4,-71,4,i,eIF4H inh retest=-1;PABP FP inh retest=5
O=C(CSc1nncn1-c1ccccc1)Nc1c(F)cccc1F,12,2,-8,5,7,4,-5,i,

# Following part:
SMILES,PABP FP inh,eIF4H inh,Env fusion inh,MT1-MMP act inh,MT1-MMP act inh RFP,Yeast UUG start,CSC inhib,Rce1 inh,others
CCn1nnc2cc(C(=O)NCC(c3ccccc3OC)N(C)C)ccc21 (stereo unspecified),2,2,4,0,-1,-10,.,i,
O=C(COC(=O)c1cc(=O)[nH]c2ccccc12)Nc1nc(-c2ccc(F)cc2)cs1,.,.,-19,10,2,-17,.,.,
COc1ccc(OC)c(S(=O)(=O)N2CCCC(N3CCN(c4ccccc4)CC3)C2)c1 (stereo unspecified),-7,7,-1,-2,-13,.,-7,i,
COc1ccc(OC)c(-c2cc(C(=O)Nc3ccccc3C(N)=O)c3ccccc3n2)c1,.,.,21,0,-2,9,33,i,
Cc1ccc(C)c(S(=O)(=O)Nc2ccc(C(=O)NCCc3ccccn3)cc2)c1,-1,-5,-19,0,2,.,-4,i,
CC(=O)O/N=C/c1c(Cl)n(C)c2ccccc12,6,-1,6,-1,2,.,9,i,
O=C(C1=C(O)C(=O)N(CC2CCCO2)C1c1ccccc1)c1ccco1 (stereo unspecified),21,-6,2,1,3,3,-10,i,
CC(C)(C)c1ccc(C(=O)NC(=S)NCc2cccnc2)cc1,20,1,29,6,-12,-32,28,i,
CCOc1ccc(C(=O)NNC(=O)c2cc(S(=O)(=O)N3CCOCC3)ccc2Cl)cc1,.,.,-12,2,-3,-16,.,.,
COc1ccc(CNC(=O)CN(Cc2ccc(F)cc2)C(=O)CCC(=O)Nc2nccs2)cc1,0,-9,11,1,1,-16,1,i,
COc1ccccc1/C=N/NC(=O)CC(=O)Nc1ccc(Cl)c(Cl)c1,-12,-12,-38,-1,3,21,2,i,
O=C(OCC(=O)c1cccs1)c1cccc(C(=O)OCC(=O)c2cccs2)n1,-2,1,.,-7,1,-16,-18,i,
CC(=O)Nc1ccc(S(=O)(=O)NCc2nc(-c3ccc(C)cc3)no2)cc1,-1,-1,-4,1,-3,-3,-12,i,
CCCCNC(=O)O/N=C(\N)CS(=O)(=O)C(C)(C)C,10,2,11,5,4,.,-7,i,
COC(=O)CSC1=C(C#N)C(c2ccsc2)CC(=O)N1 (stereo unspecified),6,-4,-41,-3,-1,-8,-5,i,
CC(NC(=O)Cc1cccs1)c1ccc2c(c1)OCO2 (stereo unspecified),8,11,.,6,4,1,5,i,
O=C(CCN1C(=O)COc2ccccc21)NCCC1=CCCCC1,9,-4,.,0,-3,-27,-1,i,
